LANA-nucl inh: LANA-nucleosome interaction inhibition; FITC-LANA1-23 / chicken nucleosome fluorescence polarization; stronger effect = lower value; z-score (no concentration beside the values); hit rate 0.3% among 51,000; AID 720717;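 active means both repeat wells score below -2 in polarization z-score versus plate sample wells, excluding overly bright wells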;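 further: 100 nL library stock added to about 30 µL; numbers are from one replicate; some results filed as inactive read as strong as hits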
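Assay system: FITC-LANA peptide and chicken nucleosomes; input: 240 nM purified chicken nucleosomes (480 nM peptide binding sites), final; also added: 50 nM FITC-LANA1-23 probe; medium: TEN-BT buffer, pH 7.5; doses: pin-transferred compound, 100 nL; times: 10–45 min, room temperature; technique: fluorescence polarization; replication: duplicates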
BasE inh: blocks the Acinetobacter baumannii siderophore enzyme BasE; purified BasE, fluorescence polarization binding displacement; inhibition, % (no concentration beside the values); hit rate 0.1% among 84,000; AID 485350;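 active means both replicates above 25% with normal brightness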;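 further: 0% = negative plate control signal and 100% = positive plate control signal; stock transfer was 100 nL into about 30 µL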
* marks the source's active call; other numbers are inactive results; . = no result given; & = joins results of further samples. An excerpt; rates above refer to the full screens.

SMILES | LANA-nucl inh | BasE inh
CCOC(=O)C1C(=O)C=C(c2ccc3ccccc3c2)CC1c1ccc(C(F)(F)F)cc1 (stereo unspecified) | . | 3.7
COC(=O)c1cccc(NC(=O)Nc2ccccc2)c1 | . | 0.2
N#Cc1c(C(F)(F)F)cc(C23CC4CC(CC(C4)C2)C3)nc1SCCC(=O)O | . | 1.6
CC1CCCCC1Nc1ncnc2onc(-c3ccc(F)cc3)c12 (stereo unspecified) | . | -0.8
Cc1ccc(CCCN)c(C)c1 | . | 1.5
COc1cc(C(F)(F)F)nc2ccc(C#CCOC(=O)Nc3ccccc3)cc12 | . | 0.5
CCc1ccc(C2N3CC4(CC)CN2CC(CC)(C3)C4=O)cc1 (stereo unspecified) | -0.054 | -0.3
c1ccc(CC2CCN(Cc3ccncc3)CC2)cc1 | 0.84 | -3.1
Cc1ccc(NC(=O)N(Cc2cc3cc(C)cc(C)c3[nH]c2=O)CC2COCCO2)cc1 (stereo unspecified) | -0.31 | 4.5
CC(C)(C)OC(=O)Cn1c(=O)cnc2ccccc21 | . | -1.3
COc1ccc(Br)cc1S(=O)(=O)N1CCCCCC1 | -0.1 | 2.1
NS(=O)(=O)c1ccc(CCNCC(=O)N2CCc3ccccc32)cc1 | . | -2.5
CCCCOC(=O)C1CCCC(C)N1 (stereo unspecified) | 1.1 | -0.5
O=S(=O)(c1cnc[nH]1)N1CCN(C(c2ccc(F)cc2)c2ccc(F)cc2)CC1 | . | -1.2
C=CCN(CC=C)C(=O)Cc1ccc(C)cc1 | 0.76 | -0.1
CCC(=O)Nc1sc(CC#N)nc1-c1ccc(C)cc1 | . | -5.0
CCNC(C)C(=O)Nc1ccc(C)cc1 (stereo unspecified) | . | -0.1
CCC(COc1nnnc2ccccc12)NC(=O)Cn1c(=O)cc(C)c2ccccc21 (stereo unspecified) | -1 | 0.0
O=S1(=O)c2cccc3cccc(c23)N1Cc1cccc(C(F)(F)F)c1 | . | -0.4
Cc1cc2oc(=O)cc(CN(C)c3ccccc3)c2cc1Cl | . | 1.0
C=CCN1C(=O)/C(=C\c2ccc(O)c(Br)c2)C(=O)NC1=S | . | 0.3
c1csc(-c2csc(Cc3nc(-c4cccs4)cs3)n2)c1 | 0.3 | -2.3
CC(=O)OC(C(=O)N1CCN(C(c2ccccc2)c2ccccc2)CC1)c1ccccc1 (stereo unspecified) | . | 1.5
CC1(C)CC(=O)NC=C(c2ccccc2)C1 | . | -1.5
Cc1cc(C)c2c(CC(=O)NC3CC(C)(C)NC(C)(C)C3)coc2c1 | -0.81 | -1.1
O=C(Nc1ccc(N2CCCCC2)cc1)C1CCCC1 | . | 0.6
CC(O/N=C/c1ccco1)C(=O)N1CCN(Cc2ccccc2)CC1 (stereo unspecified) | . | 0.6
CC1CC(=O)Nc2ccccc2N1C(=O)Cn1cnc2ccc(Br)cc2c1=O (stereo unspecified) | . | 1.2
CCOC(=O)Cc1cc(=O)c2c(=O)n(-c3ccccc3)[nH]c2[nH]1 | 1.3 | 0.5
COC(=O)/C(C#N)=C\Nc1ccccn1 | 0.68 | 0.5
CC(NC(=O)C1CCCN1C(=O)c1cccs1)c1ccc(-n2ccnc2)cc1 (stereo unspecified) | . | 2.2
O=c1[nH]c2c(s1)C(c1ccco1)C1C3CCC(C3)C1S2 (stereo unspecified) | . | -6.0
C=C(C)C1CC=C(CNc2ccc3c(c2)OCO3)CC1 (stereo unspecified) | 1.8 | -6.8
CSc1nc(N)nc(SCCS(=O)(=O)c2ccc(Cl)cc2)c1C#N | 0.6 | -0.1
COc1ccc(NC(C)C(=O)N/N=C/c2ccccc2OC)cc1 (stereo unspecified) | -0.31 | -0.3
Cc1ccc2c(c1)C1CN(C)CCC1N2C(=O)Nc1ccc(F)cc1F (stereo unspecified) | . | 1.5
O=C(O)c1ccc(Cn2ccc3ccccc32)o1 | 0.16 | 1.1
CC(C)(C)CC(=O)Nc1cccc(F)c1 | 2.3 | -0.8
CCOC(=O)N/N=C/c1ccccc1C(F)(F)F | . | 1.8
CC(=O)N1CCOc2ccc(S(=O)(=O)NCC3CCC(C(=O)Nc4ccc(C)cc4)CC3)cc21 (stereo unspecified) | -1.4 | 0.0
CCCCn1nnc(NC(=O)c2cccc(F)c2)n1 | -0.51 | 3.8
O=c1c2c([nH]c3ccccc13)CCCC2 | -0.37&0.01 | -2.1&-0.3
O=C(Nc1cc(-c2ccc(Cl)cc2)[nH]n1)C1Cc2ccccc2C1 | . | 0.1
NCCCCn1ccnc1 | 0.075 | -0.3
COC(CNC(=O)c1ccc(NC2=NC3CS(=O)(=O)CC3S2)cc1)OC (stereo unspecified) | 0.24 | -0.2
Cc1noc(C)c1C(=O)N(c1ccccc1)C(C(=O)NC1CCCC1)c1ccc(F)cc1 (stereo unspecified) | -0.15 | -0.8
NS(=O)(=O)c1ccc(CCNC(=O)CSc2nc3ccccc3c(=O)n2C2CCCC2)cc1 | . | 0.5
CCN1C(=O)/C(=C2/Sc3ccc(OC)cc3N2C)OC1=S | -0.22 | 3.0
CCCCc1noc2c1/C(=N\O)CC(c1ccccc1)C2 (stereo unspecified) | -0.11 | 0.7
COC(=O)C(NC=O)C(O)(C#Cc1ccccc1)C(F)(F)F (stereo unspecified) | . | 2.1

Next section
SMILES | LANA-nucl inh | BasE inh
O=C(NCc1ccncc1)C1CCN(S(=O)(=O)c2ccccc2)CC1 | -0.52 | -0.1
OCCNc1nc2ccccc2n1-c1ncnc2sc3c(c12)CCCC3 | . | -3.3
CCn1c(=S)[nH]c2c(c1=O)C1(CCCC1)Cc1ccccc1-2 | -0.081 | 0.9
CCN(CC(=O)Nc1ccccc1)S(=O)(=O)c1ccccc1 | -1.2 | 2.0
COc1ccccc1CC(=O)N(C(C)C)C(C)C | -0.27 | -0.3
CC(C)C(OC(=O)c1ccc2c(c1)NC(=O)C(C)(C)O2)C(=O)NC1CCCC1 (stereo unspecified) | 0.8 | 0.3
CC(C)N(CCC#N)C(=O)Nc1ccc(F)cc1 | -0.88 | 0.2
C#CCN1C(=O)S/C(=C\c2ccc(OCc3ccc(C(=O)O)o3)cc2)C1=O | -0.69 | 0.9
COc1ccc2sc(C)[n+](CCO)c2c1 | 1.7 | 0.2
CCOC(=O)c1sc(/N=C/c2ccc(O)cc2O)cc1C | . | -4.7
N#CC(c1nc2ccccc2nc1N1CCCCC1)S(=O)(=O)c1cccs1 (stereo unspecified) | -1.6 | .
C(=Nc1ccccc1)c1ccc2c(c1)OCO2 | -0.093 | .
CCCC(=O)Nc1nncs1 | 0.41 | 0.7
O=C(N1CCN=C1c1ccccc1)N1c2ccccc2Sc2ccccc21 | . | 4.6
CCCSc1nnc(Cn2c(=O)sc3ccccc32)n1-c1ccccc1C | 0.9 | 1.7
CN1C(=O)C(=C2C=C(c3ccccc3)N(Cc3ccco3)C3=C2CCCC3)C(=O)N(C)C1=O | -0.91 | 1.6
Cc1cc(NCCC(C)C)n2c(nc3ccccc32)c1C#N | -0.98 | 0.7
COc1ccc(-c2cc(C(=O)OCCN3CCOCC3)c3ccccc3n2)cc1 | . | 2.7
O=C(/C=C/c1ccco1)NC(=S)Nc1ccccc1O | 0.67 | 1.6
CC(C)n1cnc2cc(NCc3ccc(Cl)cc3)ccc21 | 0.76 | 1.8
CCn1c(=NC(=O)c2ccc(C#N)cc2)sc2cccc(F)c21 | -0.88 | -0.2
CC(=O)N1c2ccccc2NC2=C(C(=O)CCC2)C1c1ccc(N(C)C)cc1 (stereo unspecified) | . | 0.3
COc1cc(/C=C/C(=O)OCC(N)=O)ccc1OCC#N | . | 2.0
Cc1cc(Oc2ccc(=O)n(C)n2)nc(Oc2ccc(=O)n(C)n2)n1 | . | -0.4
CCCOc1ccc(Oc2nc(N(C)C)nc(N(C)C)n2)nn1 | . | 4.0

5 entries drawn at random from the list so far:
SMILES | LANA-nucl inh | BasE inh
O=C(N1CCN=C1c1ccccc1)N1c2ccccc2Sc2ccccc21 | . | 4.6
CCCOc1ccc(Oc2nc(N(C)C)nc(N(C)C)n2)nn1 | . | 4.0
CCn1c(=S)[nH]c2c(c1=O)C1(CCCC1)Cc1ccccc1-2 | -0.081 | 0.9
OCCNc1nc2ccccc2n1-c1ncnc2sc3c(c12)CCCC3 | . | -3.3
O=C(NCc1ccncc1)C1CCN(S(=O)(=O)c2ccccc2)CC1 | -0.52 | -0.1

(next part)
SMILES | LANA-nucl inh | BasE inh
C=CCN1C(=O)C2C(C(=O)NCc3ccccc3)C3C=CC2(O3)C1C(=O)NC(C)(C)C (stereo unspecified) | 0.11 | -2.1
CC1=Nc2nc(N3CCOCC3)c(C#N)c3c4c(nc(c23)N1)N(c1cccc(Cl)c1)C(=O)C4 | . | -0.2
CC(=O)N1c2ccccc2Sc2ccccc21 | -0.39 | 0.6
CN(C)S(=O)(=O)c1ccc2c(c1)oc(=O)n2C | 2 | -2.9
Clc1ccc(Nc2nnc(Cc3ccncc3)c3ccccc23)cc1 | -0.16 | .
CCc1ccc(Nc2nc3ccccc3c3nncn23)cc1 | -0.66 | 0.4
O=C(Cn1c(SCc2cccc(F)c2)nc2ccncc21)NCc1ccco1 | -0.26 | -1.8
CS(=O)(=O)N1CCC(C(=O)N2CCN(C/C=C/c3ccccc3)CC2)CC1 | 0.49 | -1.5
O=C(NC1CCCc2ccccc21)C1c2ccccc2Oc2ccccc21 (stereo unspecified) | . | 1.2
CCn1cnc2c(=O)oc3ccc(S(=O)(=O)NCc4ccccc4)cc3c21 | -0.64 | -1.6
CCOc1ccc(N(C)C(=O)[C@H]2[C@@H]3C[C@@H]4[C@H]2C(=O)O[C@@H]4C3)cc1 | -1.3 | 2.3
COc1ccc(CCNC(=O)c2ccc(C3SCC(=O)N3Cc3ccccc3)cc2)cc1OC (stereo unspecified) | . | 1.3
C(=N\n1cnnc1)/c1cccs1 | . | -1.1
CCc1nc2cccnc2n1-c1ccc(C(=O)N2CCCCC2)cc1 | 0.24 | 2.2
COC(=O)C1=COC(C)C2CN3CCc4c([nH]c5ccccc45)C3CC12 (stereo unspecified) | 0.16 | 2.3
O=C(c1cnn(C(=O)CSc2nc3ccccc3o2)c1)c1ccccc1O | . | 0.4
CCCCC(=O)N(Cc1ccc(-c2ccccc2-c2nn[nH]n2)cc1)[C@H](C(=O)O)C(C)C | -0.39&0.22&-0.78 | -1.9
O=C(Nc1cccc(NC(=O)C2CC3CCCC(C2)C3=O)n1)C1CC2CCCC(C1)C2=O (stereo unspecified) | 0.74 | -0.6
O=C(O)c1cc(=O)[nH]c2ccc(S(=O)(=O)Nc3ccc(F)cc3)cc12 | . | 3.5
O=C(c1cccs1)c1no[n+]([O-])c1C(=O)c1cccs1 | 0.26 | -3.0
COc1ccccc1NCC(F)(F)F | . | 0.4
O=C(NCc1ccccc1F)c1cc(=O)c2ccccc2o1 | . | -1.5
COC(=O)c1ccc(CN(Cc2ccc(C(=O)OC)o2)C(C)(C)C)o1 | . | -0.2
COc1ccc(NC(=O)c2snnc2C)cc1 | -0.25 | 1.1
CN(C)CCN1C(=O)c2ccccc2N(C)c2ccccc21 | -0.16 | .

Some of these compounds in order of heavy-atom count, highest first:
SMILES | LANA-nucl inh | BasE inh
O=C(Nc1cccc(NC(=O)C2CC3CCCC(C2)C3=O)n1)C1CC2CCCC(C1)C2=O (stereo unspecified) | 0.74 | -0.6
CCn1cnc2c(=O)oc3ccc(S(=O)(=O)NCc4ccccc4)cc3c21 | -0.64 | -1.6
CN(C)S(=O)(=O)c1ccc2c(c1)oc(=O)n2C | 2 | -2.9

Further entries follow:
SMILES | LANA-nucl inh | BasE inh
O=c1[nH]c2cc3c(cc2cc1C(c1nnnn1C1CCCC1)N1CCc2ccccc21)OCCO3 (stereo unspecified) | 0.34 | 3.3
O=C(Nc1cc(Cl)cc(Cl)c1)Nc1cc(-c2ccccc2)[nH]n1 | . | -2.1
COP1(=S)C2=C(N3CCOCC3)CC(C)(C)CC2=Nc2c1c(C)nn2-c1ccccc1 (stereo unspecified) | . | -2.3
O=C(O)/C=C\C(=O)NC1CCN(Cc2ccccc2)CC1 | 0.53 | 2.7
Cc1oc(-c2ccc(Cl)cc2)cc1C(=O)Nc1ccccc1 | -0.38 | 0.5
O=C(OCc1cn2cc(Cl)ccc2n1)c1cccc(-n2cnnn2)c1 | . | 1.9
O=C(OC1CCCCC1)C1CCCN1S(=O)(=O)c1cccc2nsnc12 (stereo unspecified) | . | 2.9
CCOC(=O)C1C(c2ccccc2)NC(=S)NC1(O)C(F)(F)F (stereo unspecified) | . | 2.3
Cc1ccc(C(=O)NCC(=O)O)o1 | 0.67 | 2.4
O=C(O)CNC(=O)c1ccc(N2C(=O)c3ccccc3C2=O)cc1 | -0.38 | 1.7
CC(C)(C)C1=CC(=O)c2c(ccc(C(C)(C)C)c2O)C1=O | . | 1.3
Cc1nnc(SCCn2c(C)csc2=O)n1C | . | 3.8
CCOC(=O)N1CCN(CC(=O)c2ccc3c(c2)CCN3)CC1 | 0.29 | 0.9
CSc1nc2nc3c(cc2c(=O)[nH]1)C(O)Oc1ccc(C)cc1-3 (stereo unspecified) | . | 0.0
COc1ccc(CN(C)C(C)C(=O)Nc2ccc3c(c2)OCCO3)c(OC)c1 (stereo unspecified) | . | -1.0
S=c1[nH]c(=S)c2cnc(N3CCN(c4ccccc4)CC3)nc2[nH]1 | -0.28 | -0.3
NC(=NC(=O)c1ccc(OCC(F)(F)F)nc1)c1ccc(Cl)cc1 | -0.98 | 2.0
CCCCOn1c(C)c(C(=O)OCC)c2c3no[n+]([O-])c3ccc21 | -0.45 | 2.4
C[C@H](NS(=O)(=O)c1cccc2nsnc12)C(=O)Nc1ccc2c(c1)CCC2 | . | 1.5
O=C(CSCc1ccccc1)NC1CC2CCC1C2 (stereo unspecified) | 0.44 | 1.3
